# VDR inhibitor = vitamin D3 receptor (human) inhibition; AID 504847; Potency, µM, for the others: max response, negative = inhibition, usual class: inhibitors; P11473; VDR-SRC2-3 peptide fluorescence polarization, 2 h; actives 0.93% (n = 400,000); active = well fitted inhibition curve with a large enough effect; inconclusive = small, poorly fitted or top-dose-only effect, or another doubt; inactive = no such curve, though single readings can be large or run the other way; also: series mostly up to about 120 µM
# Target sequence (P11473 whole entry, looked up): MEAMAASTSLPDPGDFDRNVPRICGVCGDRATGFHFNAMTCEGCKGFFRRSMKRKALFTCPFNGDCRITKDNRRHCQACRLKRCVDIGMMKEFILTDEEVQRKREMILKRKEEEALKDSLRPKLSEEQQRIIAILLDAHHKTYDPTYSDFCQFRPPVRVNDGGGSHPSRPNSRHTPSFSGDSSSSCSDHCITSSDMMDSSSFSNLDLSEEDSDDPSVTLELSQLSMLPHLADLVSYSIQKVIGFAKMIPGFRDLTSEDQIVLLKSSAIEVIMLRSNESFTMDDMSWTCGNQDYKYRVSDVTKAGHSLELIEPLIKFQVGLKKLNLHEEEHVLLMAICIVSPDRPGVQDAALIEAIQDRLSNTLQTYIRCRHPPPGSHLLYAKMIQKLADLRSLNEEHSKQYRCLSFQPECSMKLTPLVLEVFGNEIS
#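 The screen uses fluorescence polarization to detect compounds that interfere with recruitment of the SRC2-3 coactivator peptide to VDR; plates are read after 2 h at room temperature.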
# The depositor's hits bear a star; ? = inconclusive; & = joins results of further samples. % is scaled to controls: 0 for no effect and ±100 for the full control effect; potency is read from the fitted curve at half-maximal effect. This is a subset; count on the stated rates, not on these rows.
SMILES,VDR inhibitor
NC(=O)c1ccsc1NC(=O)COC(=O)c1cc(Cl)ccc1O,9.7%
S=C(Nc1ccccc1)N1CCOCC1,-5.7%
Cn1c(NN)nc2ccccc2c1=O,-4.9%
COc1ccc(C(=O)Nc2cc(C)nn2-c2ccc(F)cc2)cc1,12.2%
CN(C)c1ncc2nc(-c3cccs3)c(=O)n(CCC#N)c2n1,5.1%
COc1ccc(/C=C/c2cc(O)cc(OC3OC(CO)C(O)C(O)C3O)c2)cc1 (stereo not drawn),-3.3%
CCOc1ncccc1C(=O)OCCCC(=O)c1ccc(Br)cc1,-19.4%
COC(=O)c1c(NC(=O)c2ccccc2F)sc(C(=O)N2CCOCC2)c1C,-19.0%
Cc1ccc(-c2c(C(=O)N3CCOCC3)oc(=O)c3ccccc23)cc1,-15.9%
COCCNS(=O)(=O)c1ccc(SC)cc1,3.5%
CCOc1ccc(N(CC(=O)NN=C2CCN(C)CC2)S(=O)(=O)c2ccc(Br)cc2)cc1,-11.4%
CNC(=S)n1cnc(N)n1,1.5%
CC(=O)N(c1ccccc1)c1nc(C)cc(C)c1C#N,-12.4%
O=C(NC1CCCC1)C(c1cccnc1)N(C(=O)c1csnn1)c1ccc(F)cc1 (stereo not drawn),3.1%
Cc1ccc(-c2nc(CN3CCN(c4cnccn4)CC3)c(C)o2)o1,3.9%
COc1ccc2c(C)cc(SCC(=O)Nc3cc(C(N)=O)cc(C(N)=O)c3)nc2c1,4.6%
CC[C@H]1C/C=C\Cc2ccccc2[C@H](C(=O)C[C@@H](O)CC(C)=O)OC1=O,-1.4%
CCn1c(NCc2cccs2)nc2ccccc21,21.4%
CCn1c(/C=C/c2ccccc2)nc2ccccc2c1=O,6.6%
Cc1c(C)n(Cc2ccccc2)c2ccc(C(=O)NCc3ccc(OC(C)C)cc3)cc12,-0.8%
CCOCCCN(C)C1CCN(S(=O)(=O)c2csc(C(N)=O)c2)CC1,-19.5%
O=C(c1ccc(F)cc1)C1CCN(C(=O)c2ccc(F)cc2)CC1,-13.4%
CCOc1cc(C(=O)NCCc2ccc(S(N)(=O)=O)cc2)cc(OCC)c1OCC,-22.9%
O=C(NC(=S)NCc1ccc(-c2nc3ccccc3s2)cc1)c1ccco1,2.0%
O=C1Nc2ccccc2OC1CC(=O)N1CCOCC1 (stereo not drawn),-13.0%
CCN(CC)CCn1c(SCC(=O)NCc2ccccc2)nc2c(sc3ccccc32)c1=O,-7.1%
COc1cc(CC2COC(c3ccc(O)c(OC)c3)C2COC(C)=O)ccc1O (stereo not drawn),6.2%
COC(=O)c1sc(N2C(=O)C(O)=C(C(=O)c3ccc(C)o3)C2c2ccco2)nc1C (stereo not drawn),-12.1%
CC(C)n1c(-c2ccncc2)n[nH]c1=S,-10.7%
CCOC(=O)c1c(C)n(-c2ccc(C)cc2)c2ccc(O)c(CN(C)C)c12,2.7%
CCN1CCN(S(=O)(=O)c2ccc(Cl)c(C(=O)N(C)Cc3cccc(OC)c3)c2)CC1,-8.2%
CCOC(=O)c1cc2c(ccn2C)n1CC(=O)N1CCCC(C)C1 (stereo not drawn),7.7%
C/C(=N\NC(=O)c1ccccc1C)c1cccc([N+](=O)[O-])c1,5.2%
CCOc1ccc(S(=O)(=O)c2cn(Cc3cc(C)ccc3C)c3ccc(OCC)cc3c2=O)cc1,-11.2%
CCOC(=O)C1CCCN(C2CC(=O)N(c3ccc(N4C(=O)CC(N5CCCC(C(=O)OCC)C5)C4=O)cc3)C2=O)C1 (stereo not drawn),-4.7%
CCc1ccc(NC(=O)CCNS(=O)(=O)c2cccc3nonc23)cc1,-15.8%
CCC(C(=O)OCC(=O)Nc1ccc(OC)cc1OC)c1ccccc1 (stereo not drawn),0.9%
CCOc1ccc(CN2CCN(Cc3c(C)nn(CC)c3C)CC2CCO)cc1 (stereo not drawn),3.8%
COc1ccc(S(=O)(=O)c2ccc(OCC3CO3)cc2)cc1 (stereo not drawn),5.0%
c1ccc(NC2=Nc3ccccc3CS2)cc1,0.9%
Cc1c(O)c(=O)c2ccccc2n1C,3.3%
O=C(NC(NNc1ccc([N+](=O)[O-])cc1)(C(F)(F)F)C(F)(F)F)c1ccccc1Cl,79.4µM*
C=CCn1c(SCCN)nnc1-c1cccc(S(=O)(=O)N2CCOCC2)c1,-23.0%
COc1ccc2nc(C)cc(N/N=C/c3cccc(OC)c3O)c2c1,12.0%
O=C(CC1CCOCC1)Nc1ccc(Cl)c(Cl)c1,-3.4%
CCOc1cccc(NC(=O)C2CC(=O)N(c3ccc(F)cc3)C2)c1 (stereo not drawn),4.0%
COc1ccc(-c2csc(/C(C#N)=C/Nc3ccc4c(c3)OCCO4)n2)cc1,-7.7%
CCOc1ccccc1NC(=O)CN(c1ccc(Cl)cc1)S(C)(=O)=O,8.0%

# Among those listed so far, these have an aryl methoxy group.
SMILES,VDR inhibitor
COc1ccc(C(=O)Nc2cc(C)nn2-c2ccc(F)cc2)cc1,12.2%
COc1ccc(/C=C/c2cc(O)cc(OC3OC(CO)C(O)C(O)C3O)c2)cc1 (stereo not drawn),-3.3%
COc1ccc2c(C)cc(SCC(=O)Nc3cc(C(N)=O)cc(C(N)=O)c3)nc2c1,4.6%
COc1cc(CC2COC(c3ccc(O)c(OC)c3)C2COC(C)=O)ccc1O (stereo not drawn),6.2%
CCN1CCN(S(=O)(=O)c2ccc(Cl)c(C(=O)N(C)Cc3cccc(OC)c3)c2)CC1,-8.2%
CCC(C(=O)OCC(=O)Nc1ccc(OC)cc1OC)c1ccccc1 (stereo not drawn),0.9%
COc1ccc(S(=O)(=O)c2ccc(OCC3CO3)cc2)cc1 (stereo not drawn),5.0%
COc1ccc2nc(C)cc(N/N=C/c3cccc(OC)c3O)c2c1,12.0%
COc1ccc(-c2csc(/C(C#N)=C/Nc3ccc4c(c3)OCCO4)n2)cc1,-7.7%

# Additional results:
SMILES,VDR inhibitor
CCCCN(CC)C(=O)c1cccc(Cl)c1,-0.9%
O=C(CSc1nnc(NC(=O)C2CC(=O)N(c3ccccc3)C2)s1)NCC1CCCO1 (stereo not drawn),-21.2%
Cc1cc(C)c(NC(=O)C2CCCO2)c(C)c1 (stereo not drawn),10.8%
COc1ccc(CCN2CC(C(=O)NCCc3cccnc3)CCC2=O)cc1 (stereo not drawn),-2.7%
CCc1nnc2n1N=C(c1ccc(Cl)cc1)CS2,10.4%
CCSc1nc2c(c(-c3ccc(C)o3)c1C#N)CCCC2,-2.3%
CC(Oc1ccccc1)C(=O)Nc1ccc(F)c(S(=O)(=O)N2CCOCC2)c1 (stereo not drawn),-12.2%
Cc1ccccc1NS(=O)(=O)c1ccc2c(c1)NC(=O)CO2,0.9%
CN1CCC(N(C)C(=O)CCc2nc3ccccc3n2-c2ccccc2)CC1,?
Cn1c(N2CCN(C(c3ccccc3)c3ccccc3)CC2)nc2c1c(=O)[nH]c(=O)n2C,11.0%
Clc1ccc(OCc2cc(-c3ccccc3)no2)cc1Cl,6.0%
Cn1c(=O)oc2cc(S(=O)(=O)Nc3ccccc3O)ccc21,0.1%&-3.5%

# The closing 7 compounds of the part before open the next one:
SMILES,VDR inhibitor
CCSc1nc2c(c(-c3ccc(C)o3)c1C#N)CCCC2,-2.3%
CC(Oc1ccccc1)C(=O)Nc1ccc(F)c(S(=O)(=O)N2CCOCC2)c1 (stereo not drawn),-12.2%
Cc1ccccc1NS(=O)(=O)c1ccc2c(c1)NC(=O)CO2,0.9%
CN1CCC(N(C)C(=O)CCc2nc3ccccc3n2-c2ccccc2)CC1,?
Cn1c(N2CCN(C(c3ccccc3)c3ccccc3)CC2)nc2c1c(=O)[nH]c(=O)n2C,11.0%
Clc1ccc(OCc2cc(-c3ccccc3)no2)cc1Cl,6.0%
Cn1c(=O)oc2cc(S(=O)(=O)Nc3ccccc3O)ccc21,0.1%&-3.5%
CCn1c(=O)c(C(=O)NCCNCCO)c(O)c2ccccc21,8.5%
Cc1ccc(N2C(=O)CN=C2Nc2nc(C)cc(C)n2)cc1,-12.6%
CC1CCN(CCCn2c(=S)[nH]c3ccccc3c2=O)CC1,7.5%
CCOC(=O)C1CCN(C(=O)COc2ccc(Cl)cc2C)CC1,15.4%
Cc1ccnc2nc(C(=O)NC3CCCc4ccccc43)nn12 (stereo not drawn),7.0%
CCN(CC(=O)Nc1ccc(NC(C)=O)cc1)C(=O)c1ccccc1SCc1c(C)noc1C,-5.4%
CC1=C(C(=O)Nc2ccc(C)cc2C)C(c2ccc(O)cc2)n2nc(SCC(=O)c3ccc(C)cc3)nc2N1 (stereo not drawn),-0.8%
Cc1cc(C)n2nc(SCC(=O)Nc3ccc(F)c(F)c3F)nc2n1,-7.2%
O=S(=O)(c1ccccc1)c1ncc(C(F)(F)F)cc1O,4.7%
O=C(NCCC(=O)N1CCN(C(=O)c2ccco2)CC1)c1ccccc1Cl,-17.2%
O=C1CCC(C(=O)Nc2ccc([N+](=O)[O-])cc2)N1 (stereo not drawn),?
CC(=O)OCC(=O)[C@H]1CC[C@H]2[C@@H]3CC=C4C[C@@H](O)CC[C@]4(C)[C@H]3CC[C@]12C,-15.6%
Cc1cc(NC(=O)c2ccc(F)cc2)n(-c2ccccc2)n1,6.4%
COc1ccc(NC(=O)CN(C)C(=O)CN2C(=O)NC3(CCCCC3)C2=O)cc1,1.1%
COC(=O)[C@H](CC(C)C)NC(=O)Nc1ccc(S(N)(=O)=O)cc1,-0.2%
Cc1nc2ccccc2cc1O,6.3%
COc1cc(/C=C/C(=O)O)ccc1OCc1ccc([N+](=O)[O-])cc1,4.5%
COc1ccc(N2CCN(C(=O)COc3ccc4ccccc4c3)CC2)cc1,-8.2%
Cc1nn(CC(=O)Nc2cccnc2)c(C)c1[N+](=O)[O-],9.3%
CCOc1ccc(OCC(=O)NCCS(=O)(=O)N2CCN(c3cccc(Cl)c3)CC2)cc1,4.6%
CCOC(=O)c1ccc(NC(=O)CN2C(=O)CSC2=O)cc1,15.5%
CC1CCN(C(=O)c2ccc(S(=O)(=O)NCc3ccco3)cc2)CC1,-15.2%
O=C(Cn1ccc(NC(=O)OCc2ccccc2)nc1=O)NCc1ccc2c(c1)OCO2,-12.5%
CCN(CC)CCCNc1cc(C)nc2cc(-c3cccs3)nn12,4.4%
O=C(c1cc(C(F)(F)F)cc(C(F)(F)F)c1)N1CCC2(CCN(Cc3nccs3)CC2)CC1,-10.9%
CCOc1ccccc1-n1nnnc1SCC(=O)N1CCCC1=O,9.5%
COc1ccc(Nc2nc(N)nc(CSC(=S)N3CCC(C)CC3)n2)cc1,-14.4%
Cc1cc(F)ccc1NC(=O)C1CCCN(C(=O)c2cnn(-c3ccccc3)c2-n2cccc2)C1 (stereo not drawn),-3.3%
Cc1cc(C(=O)NCCN2C(=O)S/C(=C\c3cccs3)C2=O)ccc1[N+](=O)[O-],-1.2%
CC(C)(C)OC(=O)N1CCC(c2c(C(=O)N3CCCCC3)cnn2-c2ccccc2Cl)CC1,7.2%
Cc1cc(C)n(C(=O)CNC(=O)CCc2ccccc2)n1,7.2%
CC1=C(C(N)=O)C(c2ccc(C)cc2)n2nc(SCc3ccccc3F)nc2N1 (stereo not drawn),-26.8%
CCOC(=O)C1=CN(C)CCC1=O,-8.9%
Cc1ccc(C(=O)COC(=O)c2cccs2)cc1,9.8%
COCCn1c(C)cc(O)c(C(c2cccc(F)c2)N2CCN(c3ccccc3)CC2)c1=O (stereo not drawn),-3.0%
Cc1ccc(C(=O)OCC(=O)N2C(C)CCCC2C)cc1S(=O)(=O)N1CCCCC1 (stereo not drawn),-16.0%
O=C(Nc1cccc(O)c1)c1ccc(C(F)(F)F)cc1,-5.7%
CC1=CC(C)C(C(=O)O)C(C(=O)N2CCN(C)CC2)C1 (stereo not drawn),-13.2%
COc1ccc(CCNC(=O)c2cc3sccc3n2Cc2ccc(Cl)cc2)cc1OC,-14.2%
CC1CCCCC1NC(=O)NC(=O)COC(=O)c1cncc(Br)c1 (stereo not drawn),19.5%
Cc1occc1-c1nnc(SCC(=O)N(C)CCC#N)n1N,0.7%
Cc1cccc(NC(=O)CN2CCc3cc4c(cc3C2)OCCCO4)c1,5.2%
CN(/N=C/c1ccc(C(C)(C)C)cc1)C1=NCCN1,11.7%
O=[N+]([O-])c1ccc(-c2cccnc2)cc1,13.2%
CSc1nsc(SCC(=O)NC2CCCCC2)n1,-2.2%
Cc1ccc(N(C(=O)c2csnn2)C(C(=O)NC2CCCC2)c2ccccn2)c(C)c1 (stereo not drawn),-13.6%
CC(=O)NCCOc1nc(N(C)C)nc(N(C)C)n1,0.6%
CN(C)C(CNC(=O)c1ccc(NS(=O)(=O)c2ccc(F)c(F)c2)cc1)c1ccccc1 (stereo not drawn),11.8%
COc1ccc(N2CCN(S(=O)(=O)CCNC(=O)c3cc(=O)c4ccccc4o3)CC2)cc1,-9.9%&12.1%
NC(N)=NC(N)=Nc1ccc(O)cc1,-26.3%
COC(=O)C1=C(C)N=C2SC(C)C(=O)N2C1/C=C/c1ccccc1 (stereo not drawn),-9.7%
COc1ccc(C2=NOC(C(=O)O)C2)cc1 (stereo not drawn),15.5%
CN(C)c1ccc(NC(=O)CC(NCc2ccccn2)C(=O)O)cc1 (stereo not drawn),-8.6%
Cc1c(F)cccc1NS(=O)(=O)c1ccc2c(c1)NC(=O)CO2,16.9%
CC(=O)Oc1ccc(/C=N/NC2=NS(=O)(=O)c3ccccc32)cc1,13.1%
COc1ccccc1CN1CC[C@@]2(CCCN(S(=O)(=O)c3ccccc3)C2)C1,4.1%
CCOc1cc(CNn2nnnc2N)cc(Cl)c1OCC(=O)NC(C)(C)C,-14.0%
CCOC(=O)CNC(=O)COc1ccc(Cl)cc1Br,3.3%
COC(=O)C1=CN(C2CC2)C=C(C(=O)OC)C1c1ccc(C(=O)OC)cc1,9.5%
COc1ccc(NC(=O)c2cccc(S(=O)(=O)Nc3ccc(Br)cc3)c2)cn1,-2.8%
CC1CCCCN1S(=O)(=O)c1ccc(C(=O)N(CCCN(C)C)c2nc3cc4c(cc3s2)OCO4)cc1 (stereo not drawn),6.9%
O=C1CC(SCCO)C(=O)N1c1ccc(Oc2ccccc2)cc1 (stereo not drawn),-7.0%

# Screening results deposited in PubChem by National Center for Advancing Translational Sciences (NCATS).
